Screens from PubChem BioAssay.
GALR2 agonist – agonists of human galanin receptor 2 (GALR2); actives 0.48% (n = 140,000); GALR2-expressing cells, agonist activation read-out; AID 803; O43603; activation, %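 (tested at 5 µM)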;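 active means above mean plus 3 SD of all compounds, about 5% in these data, not always enough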;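 further: 0% = vehicle buffer wells and 100% = reference agonist at full effect; tested in CHO reporter cells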
Target sequence (O43603 whole entry, looked up): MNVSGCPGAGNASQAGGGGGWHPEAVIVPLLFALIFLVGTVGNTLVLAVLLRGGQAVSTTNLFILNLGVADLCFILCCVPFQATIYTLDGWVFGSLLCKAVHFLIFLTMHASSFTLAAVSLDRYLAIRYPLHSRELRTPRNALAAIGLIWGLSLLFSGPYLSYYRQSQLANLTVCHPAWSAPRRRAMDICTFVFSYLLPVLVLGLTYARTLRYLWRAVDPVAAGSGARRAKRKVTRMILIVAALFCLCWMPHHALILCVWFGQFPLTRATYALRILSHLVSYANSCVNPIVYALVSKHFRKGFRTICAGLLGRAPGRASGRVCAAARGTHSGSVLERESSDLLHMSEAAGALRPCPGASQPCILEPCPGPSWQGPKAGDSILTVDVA
PKD1 kinase inh – PKD1 (human) kinase inhibition. Q15139. PKD1 kinase fluorescence polarization assay. inhibition, %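 (about 10 µM by stock and volumes)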. actives 0.056% (n = 200,000). AID 797;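 active means inhibition of 50% or more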;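 further: controls were vehicle for no effect and a reference inhibitor for full effect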
HSV replic up – increases HSV replication in cells; HSV replication augmentation in cells, fold increase; maximum fold increase; actives 0.005% (n = 220,000);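 active means peak rise of 1.5-fold or more in the series; tested in PC3 cells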;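 further: first round at 10 µM; read as green reporter fluorescence; hits show the peak of a series up to 25 µM; 1 = signal of infected wells without compound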
RGS16-Gao – regulators of human RGS16-Galphao interaction | O15492+P09471 | binding response (% of control), % at 10 µM | bead-based flow cytometry RGS16-Galphao binding, fluorescence; actives lie on both sides | actives 0.38% (n = 220,000) | AID 1441;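 active means below 25% or above 175%, edge rows of some plates excepted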;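 further: Galphao activated by GDP with aluminum fluoride before binding; 100% = wells without compound and 0% = beads without RGS; some results beyond the cut were filed as inactive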
Target sequence (O15492 whole entry, looked up): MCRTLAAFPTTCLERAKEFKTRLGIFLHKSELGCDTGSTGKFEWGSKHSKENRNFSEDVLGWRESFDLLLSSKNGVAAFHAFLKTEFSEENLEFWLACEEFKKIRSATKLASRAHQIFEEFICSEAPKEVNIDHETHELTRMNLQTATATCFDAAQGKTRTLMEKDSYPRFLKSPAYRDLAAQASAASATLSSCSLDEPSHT
Target sequence (P09471 whole entry, looked up): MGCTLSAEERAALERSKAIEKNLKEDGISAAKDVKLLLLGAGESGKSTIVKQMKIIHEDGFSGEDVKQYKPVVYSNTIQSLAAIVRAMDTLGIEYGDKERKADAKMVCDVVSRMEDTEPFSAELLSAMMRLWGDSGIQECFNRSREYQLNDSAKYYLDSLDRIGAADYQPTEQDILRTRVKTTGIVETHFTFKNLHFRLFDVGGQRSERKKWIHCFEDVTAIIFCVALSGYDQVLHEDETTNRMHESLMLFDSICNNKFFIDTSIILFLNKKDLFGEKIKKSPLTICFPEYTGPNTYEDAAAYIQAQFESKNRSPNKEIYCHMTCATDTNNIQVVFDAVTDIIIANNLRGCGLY
INS promoter inh – TRM-6 insulin promoter activity inhibition | inhibition, % at 2 µM | actives 0.9% (n = 130,000) | TRM-6 cells (human fetal islet line), insulin promoter-eGFP reporter, imaging; reporter expression induced with tamoxifen;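 active means inhibition above the mean plus 3 SD, with well images judged a real hit on visual review, cut at about 60% in these data, passing the limit was not always enough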
INS promoter inh cell count – recorded beside INS promoter inh, whose call it bears; normalized cell count, %; measured here: cell count, toxicity; reference of the scale not given here;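 cells exposed to compound for 48 h; stained nuclei by imaging scaled within each plate; lower means fewer cells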
HSV replic up primary fold – also measured in HSV replic up; calls as there; fold increase; compound at 10 µM; measured here: primary screen fold increase 10 uM; tested in PC3 cells;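 GFP signal in the first replicate; 1 = infected wells without compound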
Starred values were filed as active, the others as inactive; i = inactive; . = not tested or not shown.

mol | GALR2 agonist | PKD1 kinase inh | HSV replic up | HSV replic up primary fold | RGS16-Gao | INS promoter inh | INS promoter inh cell count
CN1CCN(S(=O)(=O)c2ccc(NC(=S)NC(=O)C3CCCC3)cc2)CC1 | . | -2 | i | 0.99 | 102 | . | .
Cc1cccc(Nc2nc(N)nc(CN3CCN(C)CC3)n2)c1 | -1.3 | -3 | i | 0.97 | 165 | . | .
O=C(Nc1ccccc1Cl)OCc1cncs1 | . | 0 | i | 1.1 | 96 | 67* | 85*
CO/N=C/c1ccc(N2CCCC2)c([N+](=O)[O-])c1 | . | -1 | i | 1 | 92 | 36 | 97
N#Cc1c(N)n(CCNC(=O)c2cccs2)c2nc3ccccc3nc12 | 0.5 | -7 | i | 0.93 | 108 | -156 | 97
COc1cc([C@@H]2c3cc4c(cc3[C@@H](O)[C@H]3COC(=O)[C@H]23)OCO4)cc(OC)c1O[Si](C)(C)C(C)(C)C | . | . | i | 0.7 | 97 | . | .
CC(C)(C)OC(=O)N[C@@H](Cc1c[nH]c2ccccc12)c1nnc(SCC(N)=O)o1 | -3.1 | 1 | i | 0.91 | 98 | 0 | 97
Cc1ccc(S(=O)(=O)N(C)c2ccc(OCC(=O)OCc3c(C)noc3C)cc2)cc1 | -0.2 | -1 | i | 0.89 | 104 | 11 | 60
COc1ccc(-c2cc(C(=O)NNC(=S)NC(=O)c3c(-c4ccccc4)noc3C)[nH]n2)cc1 | . | -2 | i | 0.91 | 98 | -376 | 104
CC(=O)Nc1ccc(NC(=O)c2ccc(COc3ccc4c(C)cc(=O)oc4c3)cc2)cc1 | 0.4 | -9 | i | 0.88 | 103 | -15 | 66
CC1CCN(S(=O)(=O)c2ccc(N=NC3=C(O)CC(C)(C)CC3=O)cc2)CC1 | -1.0 | -2 | i | 0.94 | 40 | -7 | 106
CC(C)CC(=O)Nc1ccc(C(=O)Nc2cccc(O)c2)cc1 | . | 0 | i | 1.1 | 99 | . | .
COc1ccc(/C=N/NC(=O)c2ccoc2C)cc1O | -0.2 | -4 | i | 0.98 | 94 | 15 | 128
Cc1ccc(-n2nc3c(c2NC(=O)c2cccs2)CSC3)cc1 | -1.9 | 9 | i | 1.1 | 110 | 42 | 109
COc1cc(OC)c(S(=O)(=O)Nc2ccc(C)cn2)cc1NC(C)=O | -0.1 | -4 | i | 1.1 | 84 | 30 | 72
Cc1cc(OCC(=O)NC2CCCCC2)ccc1Cl | 0.9 | 1 | i | 1 | 98 | -6 | 73
O=S(=O)(c1ccccc1)c1cnn2c(C(F)(F)F)cc(-c3ccc(F)cc3)nc12 | -1.7 | -6 | i | 1 | 108 | 17 | 160
CC(C)(Oc1cccc2ccccc12)C(=O)O | -1.8 | 7 | i | 0.87 | 100 | 38 | 131
CCn1c2ccccc2c2cc(/C=N/NC(=O)c3ccc(O)cc3)ccc21 | 0.8 | -5 | i | 0.87 | 97 | -35 | 72
CCOC(=O)C1=C(C)N(CCCC(=O)O)C(=O)NC1c1ccc([N+](=O)[O-])cc1 (stereo not given) | -0.6 | 7 | i | 0.85 | 101 | -50 | 84

7 records picked at random from those above:
mol | GALR2 agonist | PKD1 kinase inh | HSV replic up | HSV replic up primary fold | RGS16-Gao | INS promoter inh | INS promoter inh cell count
Cc1ccc(-n2nc3c(c2NC(=O)c2cccs2)CSC3)cc1 | -1.9 | 9 | i | 1.1 | 110 | 42 | 109
CC(C)(Oc1cccc2ccccc12)C(=O)O | -1.8 | 7 | i | 0.87 | 100 | 38 | 131
Cc1ccc(S(=O)(=O)N(C)c2ccc(OCC(=O)OCc3c(C)noc3C)cc2)cc1 | -0.2 | -1 | i | 0.89 | 104 | 11 | 60
CC(=O)Nc1ccc(NC(=O)c2ccc(COc3ccc4c(C)cc(=O)oc4c3)cc2)cc1 | 0.4 | -9 | i | 0.88 | 103 | -15 | 66
CC(C)(C)OC(=O)N[C@@H](Cc1c[nH]c2ccccc12)c1nnc(SCC(N)=O)o1 | -3.1 | 1 | i | 0.91 | 98 | 0 | 97
CC(C)CC(=O)Nc1ccc(C(=O)Nc2cccc(O)c2)cc1 | . | 0 | i | 1.1 | 99 | . | .
COc1cc([C@@H]2c3cc4c(cc3[C@@H](O)[C@H]3COC(=O)[C@H]23)OCO4)cc(OC)c1O[Si](C)(C)C(C)(C)C | . | . | i | 0.7 | 97 | . | .

A stretch of the results above, as a working copy:
mol | GALR2 agonist | PKD1 kinase inh | HSV replic up | HSV replic up primary fold | RGS16-Gao | INS promoter inh | INS promoter inh cell count
CC(C)(Oc1cccc2ccccc12)C(=O)O | -1.8 | 7 | i | 0.87 | 100 | 38 | 131
CCn1c2ccccc2c2cc(/C=N/NC(=O)c3ccc(O)cc3)ccc21 | 0.8 | -5 | i | 0.87 | 97 | -35 | 72
CCOC(=O)C1=C(C)N(CCCC(=O)O)C(=O)NC1c1ccc([N+](=O)[O-])cc1 (stereo not given) | -0.6 | 7 | i | 0.85 | 101 | -50 | 84

Going on with the list:
mol | GALR2 agonist | PKD1 kinase inh | HSV replic up | HSV replic up primary fold | RGS16-Gao | INS promoter inh | INS promoter inh cell count
O=C(/C=C/c1ccccc1)NC(=S)Nc1ccc2c3c(cccc13)CC2 | 0.1 | -1 | i | 0.84 | 113 | 24 | 135
O=S(=O)(c1ccc(Br)cc1)n1ccc2ccccc21 | -3.0 | -4 | i | 0.78 | 90 | 16 | 80
O=C(NCCOc1ccc2ccccc2c1)c1cncc(Br)c1 | . | . | i | 0.78 | 113 | . | .
NC(=O)c1c(NC(=O)Cn2cnc([N+](=O)[O-])n2)sc2c1CCCC2 | . | . | i | 0.95 | 102 | . | .
CCN(CC)CC(C(=O)N(CC)CC)P(=O)(c1ccccc1)c1ccccc1 (stereo not given) | -1.9 | -17 | i | 0.91 | 101 | 35 | 81
CSc1ccccc1NC(=O)c1ccc(C)o1 | -0.7 | -6 | i | 0.69 | 112 | -15 | 87
O=C(C[n+]1ccc(/C=C/c2ccccc2)cc1)c1ccc2c(c1)OCCO2 | . | . | i | 0.73 | 101 | . | .
CC(C)CCNC(=O)COc1ccc(C(=O)c2ccccc2)cc1 | . | 0 | i | 1.1 | 111 | -42 | 157
CCOC(=O)C(=O)N(Nc1ccccc1C)c1ccccc1C | . | -6 | i | 0.97 | 104 | . | .
Cc1nnc2sc(SCC(=O)Nc3ccc(Cl)cc3)nn2c1=O | . | -2 | i | 0.94 | 102 | 17 | 234
CCCCc1nc(Cl)c(C#N)c2c1CCC2 | . | . | i | 1 | 105 | . | .
CC(C)[C@H]1C=C(C(=O)O)O[C@@H](OCc2ccc(CO)cc2)C1 | . | . | i | 0.9 | 103 | . | .
CC(=O)N/C(=C/c1ccc(OS(=O)(=O)c2ccc(C)cc2)cc1)C(=O)NCCO | -0.9 | -2 | i | 0.99 | 98 | 35 | 88
CC(C)CCSc1nc(N)c(C#N)cc1C#N | -0.9 | -2 | i | 0.8 | 101 | -22 | 167
COc1ccc(NC(=S)N2CCCN(Cc3cc(C)ccc3C)C2)cc1 | . | 7 | i | 0.9 | 91 | 10 | 73
O=[N+]([O-])c1ccc(NCCCNS(=O)(=O)c2ccccc2)cc1 | . | 0 | i | 0.96 | 99 | 9 | 128
Cc1onc(-c2ccccc2Cl)c1C(=O)Nc1ccccc1N1CCOCC1 | 0.8 | -7 | i | 0.95 | 96 | -81 | 82
O=C(c1cc(COc2ccc(F)cc2Cl)on1)N1CCCC(OCc2cccnc2)C1 (stereo not given) | . | -6 | i | 0.94 | 103 | . | .
COc1nc(C#N)nc(N(C)C)n1 | -0.9 | -5 | i | 0.8 | 101 | -31 | 123
COCCCn1cnc2c(c1=O)c1nc3ccccc3nc1n2CCc1ccccc1 | 0.8 | 13 | . | . | 97 | . | .
COc1ccccc1C(=O)NCCn1cc(SCC(=O)NCc2ccco2)c2ccccc21 | -0.2 | 2 | i | 0.98 | 106 | -76 | 158
O=C(NCCCN1CCCC1=O)c1ccc(OC(F)(F)F)cc1 | . | -8 | i | 0.96 | 91 | 17 | 58
C=CCc1c(C)c(C#N)c2nc3ccccc3n2c1N1CCCCC1 | . | . | i | 1.4 | 102 | . | .
O=C(Nc1ccccc1)N(CCc1nc2ccccc2[nH]1)C1CCCC1 | -1.6 | -17 | i | 0.88 | 105 | 3 | 81
Cc1cc(C)cc(NC(=O)NCc2c(-c3ccccc3)noc2C)c1 | . | . | i | 0.84 | 109 | . | .
COc1cc(C)nc(N2CCCC(C(=O)Nc3cccc(Cl)c3Cl)C2)n1 (stereo not given) | -1.9 | 3 | i | 1 | 101 | -30 | 78
COc1ccccc1CNC(=O)C(NC(=O)c1ccc(C)cc1)C(C)C (stereo not given) | . | -9 | i | 0.95 | 103 | 21 | 79
CCN(c1ccc(NC(=O)COC(=O)CCc2cc(OC)c(OC)c(OC)c2)cc1)C(C)C | . | -3 | i | 1.1 | 142 | -24 | 101
CCn1cnc2sc(C(=O)O)c(C)c2c1=O | -3.5 | -9 | i | 0.88 | 103 | 5 | 106
CCOc1ccc(NC(=O)N2CCC(c3nc4ccccc4o3)CC2)cc1 | . | -2 | i | 1 | 102 | . | .
COc1ccc(/C=C/C(=O)NCC(=O)N/N=C/c2cc(Br)ccc2OCc2ccccc2)cc1 | 0.3 | 3 | i | 0.8 | 103 | 17 | 88
On1nnc2ccc(C(F)(F)F)cc21 | . | -4 | i | 0.95 | 92 | . | .
CCN(CC)S(=O)(=O)c1ccc(Cl)c(C(=O)Nc2nnc(C)s2)c1 | -1.1 | -5 | i | 0.81 | 42 | 0 | 106
Cc1cc(C)cc(C(=O)Nc2ccc(N3CCN(S(C)(=O)=O)CC3)cc2)c1 | . | 6 | i | 1 | 99 | . | .
O=C(CN1CCN(c2ccc(F)cc2)CC1)OCc1ccccc1 | -2.6 | 0 | i | 0.91 | 102 | -221 | 45
COc1ccc2c(c1)cc(C(=O)O)n2C | -0.8 | 1 | i | 0.8 | 101 | -8 | 146
Cc1cccc(NC(=O)C2CCCN2C(=O)OCC(C)C)c1C (stereo not given) | -1.0 | -13 | i | 0.95 | 103 | -6 | 55
COc1ccc(NC(=O)c2onc(C)c2Cl)cc1OC | -1.6 | -2 | i | 0.86 | 105 | . | .
CC12CCC(C(=O)N(NC(=O)c3ccccc3O)C1=O)C2(C)C (stereo not given) | -1.1 | -4 | . | . | 69 | 8 | 92
COc1ccc(NS(=O)(=O)/C=C/c2ccc(OC)c(OC)c2)cc1 | . | 7 | i | 0.9 | 102 | . | .
Cn1cccc1-c1cc(C(=O)O)[nH]n1 | . | . | i | 0.84 | 102 | . | .
O=C(Nc1ccc2c(c1)C(=O)N(CC1CCCO1)C2=O)c1ccccc1Br (stereo not given) | -1.9 | -11 | i | 0.93 | 98 | -3 | 121
COc1ccc(CCN(Cc2cc3cccc(C)c3n3nnnc23)C(=O)c2ccncc2)cc1OC | . | 9 | i | 1 | 97 | -61 | 80
CC1CC(C)CN(C(=O)CCNS(=O)(=O)c2ccc3c(c2)CCC(=O)N3)C1 (stereo not given) | -1.9 | -4 | i | 1 | 110 | 33 | 126
